LT uptake inh – inhibitors of anthrax lethal toxin internalization. Potency, µM (top dose mostly 40 µM), without a hit: top-dose activity change, negative = inhibition, hits mostly inhibitors. AID 912. Cells, anthrax lethal toxin internalization, FRET ratio (460/530). actives 0.67% (n = 70,000); active = well fitted falling ratio curve with the 530 nm signal flat; inconclusive = other ratio curves, or a change in one channel alone; inactive = flat curves in the ratio and both channels; the % refers to the ratio; note: % is set by controls: 0 for no effect and ±100 for the full control effect; nearly all actives have a fitted effect of over 50% in size; tested in ME-180 cells; beta-lactamase reporter
SmPrx2 inh – inhibitors of Schistosoma mansoni peroxiredoxin 2; S. mansoni Prx2 activity coupled to TGR/GSH (TGR is thioredoxin glutathione reductase), NADPH fluorescence loss, qHTS; some inactives read as strong as hits; Potency, µM; actives 0.07% (n = 65,000); AID 448; active means full or partial inhibition curve with a strong effect at the top dose; inconclusive means weaker partial or single-point curve; inactive means no accepted curve; note: series up to 57 µM; many of its hits are not listed in these tables
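Prx2 inhibition was measured as reduced NADPH consumption when electrons flowed from NADPH through TGR and glutathione to Prx2 and H2O2. Plates were read kinetically over 8 min; enzyme reagents were held at 4 deg C during dispensing.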
The depositor's hits bear a star; u = inconclusive; x = not tested or not shown; [ ] = another dose, or the depositor's remark. Potency is the fitted concentration of half-maximal effect. This is a subset; rates above refer to the full screens.

SMILES	LT uptake inh	SmPrx2 inh
CCCCC(=O)Nc1ccc(C(=O)N2CCCC(C(=O)OCC)C2)cc1 (configuration not stated)	-5.6%	>57
Cc1nnc2sc(-c3cccc(NC(=O)c4cccnc4)c3)nn12	u	>57
O=C1c2ccccc2C(=O)N1CCCCN1CCN(CCCCN2C(=O)c3ccccc3C2=O)CC1	-30.0%	>57
Cc1ccc2cc(CN(Cc3cccs3)Cc3nnnn3C(C)(C)C)c3nnnn3c2c1	-9.1%	>57
COCCn1c(=O)c(CCc2ccccc2)nc2cnc(Oc3ccccc3)nc21	u	>57
COc1cc2[nH]c(=S)n(CCCN3CCOCC3)c(=O)c2cc1OC	1.9%	>57
COc1ccccc1N1CCN(Cc2cccc(OC)c2OC)CC1	-4.6%	x
CN1CCN(Cc2ccc(OCc3ccccc3)cc2)CC1	1.4%	x
O=C(O)c1ccc(NC(=O)C2C3CCC(C3)C2C(=O)O)cc1 (configuration not stated)	-5.9%	>57
C[C@]1(C(=O)NCCN2CCOCC2)C=C[C@@H](Cc2ccccc2)N1C(=O)c1ccccc1	18.1%	x
c1ccc(Cc2nc(-c3ccccn3)no2)cc1	-9.1%	>57
CCC1SC2=NCCN2C1(O)c1ccc(Cl)cc1 (configuration not stated)	u	>57
COC(=O)CN1C(=O)C(O)(CC(=O)c2ccc(Cl)cc2)c2ccccc21 (configuration not stated)	-16.0%	>57
COc1cc(C(=O)N2CCN(C(=O)COc3ccc4ccccc4c3)CC2)cc(OC)c1OC	12.4%	x
O=C(Nc1c(C(=O)N2CCCCC2)cnn1-c1ccccc1)c1ccccc1	-1.9%	>57
CC1(C)CC(=O)C(C=NCc2ccccn2)=C(O)C1	1.1%	x
O=C1OCc2cc(NC(=O)C3CCCO3)ccc21 (configuration not stated)	-21.7%	>57
CC(C)(C)C1=Nn2c(nnc2-c2n[nH]c3c2CCC3)SC1	-11.0%	>57
O=C(Nc1ccccc1)N(O)c1ccc(Cl)cc1	-12.2%	>57
COc1ccc(-n2c(C)cc(C(=O)COC(=O)Cn3cnc4ccccc43)c2C)cc1	-1.4%	>57
C=CCNC(=O)C1CC(=O)N(c2ccc(C)cc2)C1 (configuration not stated)	-2.4%	>57
COc1ccc(CNc2cc(-c3ccoc3)ncn2)c(OC)c1	7.9%	>57
Cc1[nH]nc2c1C(c1ccccc1F)NC2=O (configuration not stated)	-0.9%	>57
COCc1nnc(NC(=O)c2ccc(S(=O)(=O)N(C)C3CCCCC3)cc2)o1	4.2%	>57
CSc1nncc(-c2ccc(F)cc2)n1	-17.7%	>57
(continued)
SMILES	LT uptake inh	SmPrx2 inh
CCCCOc1ccc(-c2nnn(C(C)(C)C(=O)OC)n2)cc1	u	>57
CCOc1ccccc1C1N(c2ccc(F)cc2)C(=O)C2CCCN21 (configuration not stated)	0.0%	>57
CC1CN=C(Nc2cccc3ccccc23)S1 (configuration not stated)	15.8%	>57
COc1ccc(OC)c(S(=O)(=O)N2CCC(C(=O)N3CCc4ccccc4C3)CC2)c1	x	>57
CC1CCCCC12NC(=O)N(CC(=O)c1ccc[nH]1)C2=O (configuration not stated)	5.7%	>57
Cc1ccccc1Cc1c(C)nc2c(C(=O)N3CCN(Cc4ccc5c(c4)OCO5)CC3)cnn2c1C	x	>57
Cc1cccc(-c2nnc3n2N=C(c2ccccc2Br)CS3)c1	9.2%	>57
O=C(Cn1cnc2c(oc3ccccc32)c1=O)NCc1ccco1	-0.5%	>57
CCOC(=O)c1ccc(S(=O)(=O)Nc2ccccc2-c2nnn(CC)n2)cc1	-18.0%	>57
CC(=O)Nc1nnc(Cc2ccccc2)s1	0.3%	>57
COCC(=O)N1CCC[C@@]2(CCN(C(=O)Nc3ccccc3)C2)C1	7.3%	>57
Cc1nnc(SCCn2c(N3CCN(C)CC3)nc3c2c(=O)n(C)c(=O)n3C)s1	-7.8%	>57
N=C1C(c2nc3ccccc3s2)=C(O)CN1CCCO	1.6%	>57
CCCS(=O)(=O)N1CCC(C(=O)NCc2ccco2)CC1	0.0%	>57
CCCCCNC(=O)CCn1c(=O)oc2ccccc21	10.6%	>57
CC(C)(C)Sc1nc(O)cc(=O)[nH]1	x	>57
O=C(CCC1CCCC1)N1CCN(C2CCCC2)CC1	-4.0%	>57
Cc1cc(OCc2nn[nH]n2)c2c(-c3ccccc3)cc(=O)oc2c1	-4.6%	>57
COc1ccccc1CNc1ncncc1-c1ccc(N(C)C)cc1	u	>57
O=C(c1cc2c(s1)CCCC2)N1CCN(Cc2ccc3c(c2)OCO3)CC1	-13.1%	>57
CC1(C)Cc2nc(N)c(=O)sc2C1	6.4%	>57
O=C(CCCOc1ccc(Cl)cc1)N1CCCCC1	0.5%	x
CC(C)C(C(=O)NC(C)(C)C)N1C(=O)c2ccccc2C1=O (configuration not stated)	-1.8%	x
O=C(CCNc1n[nH]c(=O)[nH]c1=O)N1CCCCC1	0.5%	>57
Cc1ccc(Cn2nc(C)c(NC(=O)c3noc4c3CCCCC4)c2C)cc1	-16.1%	>57

2 entries drawn at random from those above:
SMILES	LT uptake inh	SmPrx2 inh
O=C1c2ccccc2C(=O)N1CCCCN1CCN(CCCCN2C(=O)c3ccccc3C2=O)CC1	-30.0%	>57
COc1ccc(OC)c(S(=O)(=O)N2CCC(C(=O)N3CCc4ccccc4C3)CC2)c1	x	>57

The listing continues.
SMILES	LT uptake inh	SmPrx2 inh
O=C(Nc1ccc2c(c1)CCC2)C1CCCN(c2ncccn2)C1 (configuration not stated)	-8.5%	>57
CC(NC(=O)c1cc(-c2cccs2)on1)c1ccccc1 (configuration not stated)	19.0%	>57
CCOC(=O)C1CCN(C(=O)COc2cc(C)c(Br)cc2C)CC1	0.0%	>57
COc1cc2c(cc1OC)C(C(=O)N1CCCCC1)C(c1ccccc1F)N(C)C2=O (configuration not stated)	-8.6%	>57
c1cncc(CNc2ccnc(-c3ccc4c(c3)OCO4)n2)c1	5.4%	>57
CCN(CC)c1ccc(CN(C(=O)c2ccco2)C2CCS(=O)(=O)C2)cc1 (configuration not stated)	x	>57
CCC(C)NC(=O)c1ccccc1NC(=O)C(C)N(c1ccccc1)S(C)(=O)=O (configuration not stated)	-9.1%	>57
COc1c(O[C@H]2O[C@@H](CO)[C@@H](O)[C@@H](O)[C@@H]2O)cc2c(c1OC)-c1ccc(SC)c(=O)cc1[C@H](NC(C)=O)CC2	0.5%[3.58 µM]	>57
CCCc1nc2ccccc2c(=O)n1NC(=O)c1c(O)c2cccc3c2n(c1=O)CCC3	7.0%	>57
O=C(CCn1nnc(-c2cccs2)n1)N1CCc2ccccc2C1	0.0%	>57
COc1ccc(C(c2sc3nc(C)nn3c2O)N2CCc3ccccc3C2)cc1 (configuration not stated)	-0.1%	>57
C=CCn1c(SCc2c(C)noc2C)nc2cc(C(=O)O)ccc2c1=O	u	>57
COC(=O)C1=C(C)NC(C)=C(C(=O)OC(C)C)[C@H]1c1cccc2nonc12	9.7%[3.58 µM]	>57
O=C(Cc1cccs1)Nc1ccccc1C(=O)O	10.9%	>57
N#Cc1cccc(-c2nc3cnc(N4CCOCC4)nc3n(Cc3ccc(F)cc3)c2=O)c1	u	>57
CC(C)(C)c1ccc(C(=O)CCCSC2=C(C#N)C(c3ccco3)C3=C(CCCC3=O)N2)cc1 (configuration not stated)	3.7%	>57
O=C(CSc1nnc(-c2ccncc2)o1)Oc1ccccc1	2.4%	>57
COc1ccccc1N1CCN(C(=O)c2cc3n(n2)C(C(F)(F)F)CC(c2ccco2)N3)CC1 (configuration not stated)	-8.9%	>57
Cc1cc(C(=O)O)cc(S(=O)(=O)N2CCOCC2)c1C	2.9%	>57
CCc1nnc(NC(=O)CSc2nnc(COc3cccc(C)c3)o2)s1	-2.7%	>57
CCOc1ccc(-c2nnn(CC(=O)NCc3ccco3)n2)cc1	-10.2%	>57
CCSc1nc(N)c2c3c(sc2n1)CN(C)CC3	-25.4%	>57
CC(C)Cn1c(=O)c(C(=O)Nc2ccncc2)c(O)c2ccccc21	-2.6%	>57
C=CCN(c1ccccc1)S(=O)(=O)c1ccc2c(c1)oc(=O)n2C	-8.3%	>57
N=c1n(CC(=O)O)c2ccccc2n1Cc1ccccc1Cl	-19.3%	>57
Next records:
SMILES	LT uptake inh	SmPrx2 inh
CCn1c(SCC(=O)NCc2ccc(F)cc2)nc2c(c1=O)SC(C)C2 (configuration not stated)	-1.5%	>57
COCCn1c(=NC(=O)CSCC(=O)NC2CCCCC2)sc2cc(OC)ccc21	x	>57
CCN1C(=O)CC(C(=O)O)SC1=Nc1ccc(OC)cc1 (configuration not stated)	-13.4%	>57
CNc1ccccc1C(C)(C)c1cc(-c2ccco2)n[nH]1	-19.1%	>57
O=C(CN1C(=O)CSc2ncccc21)N1CCOCC1	-0.2%	>57
O[C@]1(c2ccccc2)c2ccccc2NC2=NCCN21	-16.0%[8 µM]	>57
CCOC(=O)c1c(C)n(C(=O)c2ccco2)c(=O)n1C(=O)c1ccco1	u	>57
COc1cc(/C=N/n2c(SC)nnc(C(C)(C)C)c2=O)ccc1O	-7.4%	x
CCC(=O)NC(Nc1cccc(C)n1)(C(F)(F)F)C(F)(F)F	x	>57
Cc1ccc(CNC(=O)CCc2c(C)nc3ncnn3c2C)cc1	-5.7%	>57
CCOC(=O)c1cnc(-n2nc(C)cc2C)nc1NC(C)c1ccccc1 (configuration not stated)	-28.7%	>57
Cc1ccc(=O)n(C(C(=O)NCc2ccco2)C(=O)c2ccc(F)cc2)c1 (configuration not stated)	14.3%	>57
CN(C)Cc1ccccc1-c1cncnc1NCc1cccnc1	1.0%	>57
Cc1cc(C)n(C2=NS(=O)(=O)c3ccccc32)n1	0.9%	>57
CC(C)C(c1nnnn1Cc1cccs1)N1CCN(C2CCCC2)CC1 (configuration not stated)	-16.8%	>57
CC1CCN(C(=O)CN2C(=O)C(=O)c3ccccc32)CC1	6.0%	>57
COc1ccccc1C(=O)N1CCN(c2nc3cc(C)c(C)cc3cc2C#N)CC1	-7.7%	>57
O=C(O)CC1NC(=O)N(c2ccccc2)C1=O (configuration not stated)	10.1%	>57
Cn1c(=O)oc2cc(S(=O)(=O)N3CCCC(C(=O)Nc4ccc5c(c4)OCCO5)C3)ccc21 (configuration not stated)	14.4%	x
OC(CNC1CCCCC1)CN1CCN(CC(O)CNC2CCCCC2)CC1 (configuration not stated)	0.4%	x
Cc1noc(/C=C/N(C)C)c1S(=O)(=O)N1CCC(C(=O)O)CC1	-14.8%	x
O=C(NCc1ccc2c(c1)OCO2)c1ccc(CN2CCOCC2)cc1	5.1%	>57
O=C(COc1cnc2ccccc2n1)NCCC1=CCCCC1	-2.3%	>57
Cc1cc(C)c2[nH]c(=O)c(C(c3nnnn3C(C)(C)C)N3CCN(C(=O)c4ccco4)CC3)cc2c1 (configuration not stated)	-12.4%	>57
CN(C)Cc1ccccc1-c1ccc2ncnc(N3CCOCC3)c2c1	-12.4%	>57

Taken from above:
LT uptake inh, `CN(C)Cc1ccccc1-c1ccc2ncnc(N3CCOCC3)c2c1` → -12.4%
SmPrx2 inh, `O[C@]1(c2ccccc2)c2ccccc2NC2=NCCN21` → >57
SmPrx2 inh, `CCOC(=O)c1c(C)n(C(=O)c2ccco2)c(=O)n1C(=O)c1ccco1` → >57
SmPrx2 inh, `O=C(O)CC1NC(=O)N(c2ccccc2)C1=O` (configuration not stated) → >57

Going on with the list:
SMILES	LT uptake inh	SmPrx2 inh
CCOC(=O)c1cnn2c(C(F)(F)F)cc(-c3ccco3)nc12	18.7%	>57
CN(C(=O)c1cnccn1)c1nnc(-c2cccnc2)s1	5.8%	>57
Cc1c(CN(C)CCc2ccccc2)c(=O)n(-c2ccccc2)n1C	u	x
O=C(c1ccc(CS(=O)(=O)c2ccccc2)o1)N1CCN(c2ncccn2)CC1	3.0%	>57
CC1CC(C)CN(C(=O)c2cn(C)c3ccc(S(=O)(=O)N(C)C)cc3c2=O)C1 (configuration not stated)	21.8%	>57
COC(=O)c1ccc(C2/C(=C(/O)c3ccc(OC(C)C)cc3)C(=O)C(=O)N2c2cc(C)on2)cc1 (configuration not stated)	x	>57
Cn1c(C(=O)N2CCN(c3ccccc3F)CC2)cc2c(=O)n(C)c3ccccc3c21	-3.5%	>57
COc1ccc2cc(C(=O)NCc3ccco3)c(=Nc3ccc(C(=O)O)cc3)oc2c1	7.6%	>57
COc1ccc(C2/C(=C(/O)c3ccc4c(c3)CC(C)O4)C(=O)C(=O)N2CCN2CCOCC2)cc1 (configuration not stated)	9.6%	>57
O=C(CS(=O)(=O)Cc1ccccc1)NCc1ccc2c(c1)OCO2	-2.9%	u
COc1ccc(-c2ccc(-c3noc(C4CCCCC4)n3)c(OC)n2)cc1	x	>57
O=C(O)c1ccccc1C(=O)N1CCN(c2cccc(Cl)c2)CC1	-10.2%	>57
COCCCNC(=O)c1ccc2nc3ccccc3c(=O)n2c1	3.3%	>57
O=C(Nc1ccc2c(c1)OCO2)C1CCCN1C(=O)Nc1cccc(F)c1 (configuration not stated)	-5.3%	>57
O=C(Nc1ccccc1)N1CCCC2(CCN(C(=O)c3csnn3)CC2)C1	6.3%	>57

Record cards (already shown).
Profile of `O=C(Nc1ccc2c(c1)OCO2)C1CCCN1C(=O)Nc1cccc(F)c1` (configuration not stated) → LT uptake inh: -5.3%; SmPrx2 inh: >57
Profile of `COCCCNC(=O)c1ccc2nc3ccccc3c(=O)n2c1` → LT uptake inh: 3.3%; SmPrx2 inh: >57
Profile of `CCOC(=O)c1cnn2c(C(F)(F)F)cc(-c3ccco3)nc12` → LT uptake inh: 18.7%; SmPrx2 inh: >57

From PubChem BioAssay
